PV pol inh: poliovirus RdRp elongation inhibitors, primary screen, biochemical, fluorescence polarization, total intensity | poliovirus polymerase elongation; stronger effect = lower value | % elongation, % (compound at 16.7 µg/mL) | 0.66% of 150,000 active | AID 588519, 2011; in the data active = % elongation below about 90%; note: some results filed as inactive read as strong as hits
Target sequence (P03300 1749-2209 limits assumed): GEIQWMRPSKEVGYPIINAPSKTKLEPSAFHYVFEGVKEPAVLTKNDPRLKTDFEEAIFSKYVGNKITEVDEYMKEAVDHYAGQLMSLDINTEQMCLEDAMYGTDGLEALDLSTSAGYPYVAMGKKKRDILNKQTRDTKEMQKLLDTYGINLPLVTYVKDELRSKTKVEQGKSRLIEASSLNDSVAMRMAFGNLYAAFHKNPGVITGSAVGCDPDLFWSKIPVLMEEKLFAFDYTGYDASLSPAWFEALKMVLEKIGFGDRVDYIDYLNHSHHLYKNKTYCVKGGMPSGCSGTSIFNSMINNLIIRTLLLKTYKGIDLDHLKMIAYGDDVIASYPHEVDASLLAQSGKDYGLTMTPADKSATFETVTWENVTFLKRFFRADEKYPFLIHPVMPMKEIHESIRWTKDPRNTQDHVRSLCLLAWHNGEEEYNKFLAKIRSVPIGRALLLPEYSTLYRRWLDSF
PV pol inh intensity: further read-out of PV pol inh, marked with its call; % elongation; measured here: total intensity read-out; formula for this scale not given here;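 total fluorescence in place of polarization; lower means less elongation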
The depositor's hits bear a star.

SMILES	PV pol inh	PV pol inh intensity
COc1cccc(COC(=O)c2ccc(-c3nnn(Cc4cccc(OC)c4)n3)cc2)c1	109	110
COc1ccc(-n2cc(C(=O)Nc3cc(F)ccc3F)c3ccccc3c2=O)cc1	108	111
COC(=O)c1cccc(NC(=O)C2CCN(S(=O)(=O)Cc3ccccc3)CC2)c1C	111	109
CCOC(=O)c1c(C)n(S(=O)(=O)c2ccc(C)cc2C)c2ccc(NS(=O)(=O)c3ccc(C)cc3C)cc12	101	104
COc1ccc(CN2CCN(c3ncnc4sc5c(c34)CC(C)CC5)CC2)cc1F (centres undefined)	103	104
COc1ccc(C(=O)NCCn2cc(SC(C)c3ccccc3)c3ccccc32)cc1OC (centres undefined)	101	110
COc1ccc(NC(=O)CN2C(=O)C(c3ccc(C(C)(C)C)cc3)=NC2(C)C)cc1Cl	113	113
CCOC(=O)c1ccc(NC(=O)C2CCN(S(=O)(=O)c3ccc(C)cc3)CC2)cc1	106	111
CCOc1cccc2sc(NC(=O)c3ccc(S(=O)(=O)N4CCc5ccccc54)cc3)nc12	106	114
COc1cc(OC)c(NC(=O)Cn2c(SCc3ccccc3F)nc3cccnc32)cc1Cl	109	117
O=C(CCc1ccccc1)NC1CC(=O)N(c2cccc(F)c2)C1 (centres undefined)	110	105
CCCCOC(=O)c1ccc(NC(=O)Cc2coc3ccc(C(C)C)cc23)cc1	118	115
CCOC(=O)c1ccc(NC(=O)Nc2cc3c(cc2N2CCCCC2)n(CC)c(=O)n3CC)cc1	105	107
Cc1nc(-n2nc(C)c(Cc3ccccc3Cl)c2C)sc1C(=O)Nc1ccccc1F	111	111
CCOc1ccccc1NC(=O)Cn1c(=O)n(CCCC(=O)NCCc2ccc(C)cc2)c(=O)c2ccccc21	107	111
O=C(NCc1ccc(F)cc1)C(=O)NCC(c1ccc2c(c1)OCO2)N1CCOCC1 (centres undefined)	101	109
CCOC(=O)c1cc(-c2ccc(OC)cc2)n(CCC(=O)NCCc2ccccc2)c1C	108	115
CC(C)NC(=O)CSc1nc2ccccc2c(=O)n1Cc1ccc(C(=O)NC(C)C)cc1	111	114
COc1ccc(CCNC(=O)CSc2nc3ccccc3nc2Cc2ccc(C)cc2)cc1OC	103	107
CCOc1ccccc1CNC(=O)c1ccc(Cn2c(=O)c3cccn3c3cccnc32)cc1	108	110
CCOc1ccc(Nc2c(S(=O)(=O)c3ccccc3)cnc3ccc(CC)cc23)cc1	102	104
COc1ccccc1Cn1cc(C(=O)c2ccc(C)cc2)c(=O)c2cc3c(cc21)OCCO3	104	109
Cc1ccc2nc(NC(=O)c3nc(SCc4ccccc4F)ncc3Cl)sc2c1	101	103
CCN1C(C(=O)c2ccccc2)=C(OC(=O)C(C)C)c2ccccc2S1(=O)=O	114	117
CN(C)CCNC(=O)c1ccc2c(c1)N(Cc1ccccc1)C(=O)c1ccccc1S2(=O)=O	108	110
COc1ccc(C2CC(=O)Nc3c2c(C)nn3-c2nncc(-c3ccccc3)n2)c(OC)c1OC (centres undefined)	108	111
CC(C)c1ccc(OCC(=O)NC(Cc2c[nH]c3ccccc23)C(=O)O)cc1 (centres undefined)	108	112
O=C(NCc1ccc2c(c1)CCN2C(=O)c1ccc(Cl)cc1)c1ccco1	103	106
O=C(Nc1nc2n(n1)C(c1ccc(F)cc1)C=C(c1ccc(Cl)cc1)N2)c1ccc([N+](=O)[O-])cc1 (centres undefined)	122	127
O=C(COc1ccccc1)OCc1cc(=O)n2nc(C3CC3)sc2n1	109	115
CCc1ccccc1NC(=O)C1CCCN(c2ncnc3onc(C)c23)C1 (centres undefined)	109	112
O=c1ccc2cc(S(=O)(=O)NCc3ccc(Cl)cc3)ccc2[nH]1	111	108
CC(=O)Nc1cccc(NC(=O)Cc2csc(COc3cccc(C)c3)n2)c1	109	118
COC(=O)c1sc(N2C(=O)c3oc4cc(C)c(C)cc4c(=O)c3C2c2ccccc2F)nc1C (centres undefined)	100	103
CCN1CCN(C(c2ccc(C)cc2)c2c(O)cc(C)n(Cc3ccco3)c2=O)CC1 (centres undefined)	108	110
O=C(Nc1ccc(Cl)cc1)C(NS(=O)(=O)c1cccs1)c1ccccc1 (centres undefined)	102	107
COc1ccc(CNC(=O)c2cc3cc(OC)ccc3oc2=O)cc1	99	102
CCCC(=O)NCC(c1ccc2c(c1)OCO2)N1CCN(c2ccccc2)CC1 (centres undefined)	111	110
CCOc1cccc2sc(NC(=O)c3ccc(S(=O)(=O)N4CCCCC4)cc3)nc12	107	109
CCCCn1c(SCC(=O)Nc2ccc(F)cc2)nc2c(sc3ccccc32)c1=O	114	115

Arranged by heavy-atom count (lowest first): three of the compounds above
SMILES	PV pol inh	PV pol inh intensity
CCc1ccccc1NC(=O)C1CCCN(c2ncnc3onc(C)c23)C1 (centres undefined)	109	112
CCN1C(C(=O)c2ccccc2)=C(OC(=O)C(C)C)c2ccccc2S1(=O)=O	114	117
CCOc1cccc2sc(NC(=O)c3ccc(S(=O)(=O)N4CCCCC4)cc3)nc12	107	109

Next structures follow:
SMILES	PV pol inh	PV pol inh intensity
O=C(COCc1cc(-c2ccc3c(c2)OCO3)on1)NCc1ccc(F)cc1	112	107
Oc1c(C(c2ccccc2F)N2CCCC2)sc2nc(-c3ccco3)nn12 (centres undefined)	108	108
COc1ccc(C(=O)Oc2c(Sc3ccc(C)cc3)c(C)nn2C(C)(C)C)c(OC)c1	101	104
COc1ccc(NC(=O)Cn2c(=O)ccc3cc(S(=O)(=O)N4CCCC4)ccc32)cc1Cl	105	93
COC(=O)c1cc(S(=O)(=O)N2CCN(c3cccc(C)c3)C(C)C2)c[nH]1 (centres undefined)	113	113
Cc1cc(N2CCCCC2)nc2ccc(NC(=O)CCC(=O)N3CCN(c4ccccc4)CC3)cc12	104	107
CCc1ccccc1NC(=O)Cn1c(-c2nonc2N)nc2ccccc21	109	117
CCOc1ccc(CCNC(=O)CN2C(=O)COc3ccc(S(=O)(=O)N(CC)CC)cc32)cc1	100	97
COCCCNC(=O)c1sc2nc3n(c(=O)c2c1C)CCC3	105	103
O=C(Nc1nnc(S(=O)(=O)N2CCCCCC2)s1)c1ccccc1F	108	97
COc1ccc(N2CCN(S(=O)(=O)CCNC(=O)COc3cccc(OC)c3)CC2)cc1	105	107
COc1ccc(C2C(=O)N(C3CCC(C)CC3)CC(=O)N2Cc2ccc(C)cc2)cc1OC (centres undefined)	105	105
CCC1CN(C(=O)N2CCC(C(=O)NCc3ccco3)CC2)c2ccccc2O1 (centres undefined)	109	107
CCCn1cc(S(=O)(=O)c2ccc(C)cc2)c(=O)c2cc(F)c(N3CCCC3)cc21	115	110
CN(C)c1ccc(C(CNS(=O)(=O)c2ccccc2)N2CCc3ccccc32)cc1 (centres undefined)	106	104
CC(C)Cn1cc(C(=O)N2CCN(c3cccc(Cl)c3)CC2)c2c3ccccc3n(C)c2c1=O	108	110
COc1cccc(CNC(=O)CCCn2nc(C)c3sc4ccccc4c3c2=O)c1	108	109
CSc1ccc(CNC(=O)Cn2nc(N3CCN(c4ccccc4)CC3)ccc2=O)cc1	111	116
Cc1c(CC(=O)NCCc2ccccc2F)c(=O)oc2cc(O)c(Cl)cc12	108	100
CCCSCCCNC(=O)C1CCCN(c2nn3cc(-c4ccc(OC)cc4)nc3s2)C1 (centres undefined)	104	109

Shown with values under each structure: entries from further up
Values in the order: PV pol inh	PV pol inh intensity
CCOc1cccc2sc(NC(=O)c3ccc(S(=O)(=O)N4CCc5ccccc54)cc3)nc12
    106	114
CCCC(=O)NCC(c1ccc2c(c1)OCO2)N1CCN(c2ccccc2)CC1 (centres undefined)
    111	110
COc1cccc(COC(=O)c2ccc(-c3nnn(Cc4cccc(OC)c4)n3)cc2)c1
    109	110
Cc1nc(-n2nc(C)c(Cc3ccccc3Cl)c2C)sc1C(=O)Nc1ccccc1F
    111	111
COc1ccc(CNC(=O)c2cc3cc(OC)ccc3oc2=O)cc1
    99	102
CCc1ccccc1NC(=O)C1CCCN(c2ncnc3onc(C)c23)C1 (centres undefined)
    109	112

Going on with the list:
SMILES	PV pol inh	PV pol inh intensity
CCS(=O)(=O)N1CCc2cc(C(=O)NCc3ccc(C)cc3)ccc21	108	115
CCOc1ccc(C(CC(=O)Nc2cc(C)c(Cl)cc2OC)N2Cc3ccccc3C2=O)cc1OC (centres undefined)	108	105
COc1ccc(C(=O)NCC(c2ccc3c(c2)OCO3)N2CCN(c3ccc(F)cc3)CC2)cc1 (centres undefined)	111	109
CC(CCc1ccccc1)NC(=O)Cn1c(=O)nc(-c2ccccc2)c2ccccc21 (centres undefined)	105	96
Cc1ccc(Cl)cc1N1CCN(S(=O)(=O)c2cc3[nH]c(=O)c(=O)[nH]c3cc2C)CC1	98	104
COc1ccc(N2CCN(Cc3nc4c(c(=O)[nH]c(=O)n4C)n3CC(C)C)CC2)cc1	101	96
COc1ccc(CCn2cc3c(c2-c2ccc(Br)cc2)c(=O)n(C)c(=O)n3C)cc1OC	97	101
CCC(C)NC(=O)c1cc(Sc2cccc(Cl)c2)nc2ccccc12 (centres undefined)	112	105
CC(C)Cn1c(=O)c2sccc2n2c(CCCC(=O)NCCc3ccccc3)nnc12	115	115
N#Cc1ccccc1OCC(=O)N1CCN(c2ccccc2F)CC1	109	107
CCOC(=O)c1c(-c2ccc(OC)cc2)oc2ccc(OCc3ccccc3C)cc12	107	110
COc1ccc(Cn2c(=O)n(Cc3ccco3)c(=O)c3oc4ccccc4c32)cc1	106	108
COC(=O)C(C)Sc1nc2c(cnn2-c2ccc(F)cc2)c(=O)[nH]1 (centres undefined)	105	106
Cc1ccc(NC(=O)c2cc3nc(-c4ccc5c(c4)OCO5)cc(C(F)(F)F)n3n2)cc1Cl	108	111
CCN(c1ccccc1)S(=O)(=O)c1ccc(NC(=O)c2cc(=O)c3ccc(C)c(C)c3o2)cc1	102	106
O=C1C(=O)N(C2CCN(C(=O)c3cccc(Cl)c3)CC2)CCN1Cc1ccc(F)cc1	110	112
CCc1ccccc1Nc1nn2c(=O)c3ccc(C(=O)NCCC4=CCCCC4)cc3nc2s1	111	99
COc1ccc(CCNC(=O)CSc2cn(CCNC(=O)c3c(F)cccc3F)c3ccccc23)cc1OC	109	111
COc1ccc(OC)c(NC(=O)Cn2ccc3ccccc3c2=O)c1	105	108
Cc1cc(C)c2c(=O)cc(C(=O)Nc3ccccc3C(F)(F)F)oc2c1	116	110
Cc1cc(NC(=O)c2cccs2)cc(-c2nc3cc(Cl)ccc3o2)c1O	107	107
Cc1cc(Nc2ccc(C(=O)O)c(O)c2)n2ncnc2n1	107	112
Cn1cc(-c2cc3n(n2)CCC(=O)N3CCCC(=O)Nc2ccccc2Cl)c2ccccc21	108	112
CCOC(=O)c1c(NC(=O)Cc2ccccc2)sc2c1CCCC2	103	103
O=C(O)CSc1c2c(nc3cc(C(=O)Nc4ccc(F)c(Cl)c4)ccc13)CCC2	100	103
Cc1cc(C)cc(NC(=O)CSc2nccn2-c2ccccc2)c1	107	96
Cc1ccc(CSC2=Nc3ccccc3C3=NC(CCC(=O)NCc4cccs4)C(=O)N23)cc1 (centres undefined)	105	93
COc1ccc(CNC(=O)CCS(=O)(=O)c2cc(Br)cc3c2N(C(C)=O)C(C)C3)cc1 (centres undefined)	101	101
CCOc1cc(C2C(C(=O)OC)=C(C)NC3=C2C(=O)c2ccccc23)ccc1OC (centres undefined)	108	98
CCOc1ccc(NC(=O)CN2C(=O)COc3ccc(S(=O)(=O)Nc4ccccc4)cc32)cc1	107	109
O=C(CC1C(=O)N(c2ccccc2)C(=O)N1CCC1=CCCCC1)Nc1ccc(F)cc1 (centres undefined)	103	104
COc1ccc(-c2noc(-c3ccc(NCC4CCCO4)c([N+](=O)[O-])c3)n2)cc1OC (centres undefined)	109	113
O=C(Nc1ccc(OCc2cc(=O)n3c4c(sc3n2)CCCC4)cc1)c1ccccc1	100	102
COc1ccc(C)c2sc(N3CCN(C(=O)c4cccc(F)c4)CC3)nc12	114	101
Cc1c(Cl)cccc1Nc1nc(N)nc(CSc2nc3ccccc3s2)n1	103	106
Cc1cc(C)c(NC(=O)c2cc(S(=O)(=O)N3CCC4(CC3)OCCO4)ccc2F)c(C)c1	107	100
CCC(=O)N1CCc2cc(CNC(=O)Cc3ccc(OC)c(OC)c3)ccc21	103	104
O=c1c(NCc2cccs2)nccn1-c1ccccc1	108	113
O=C(CSc1nc2c([nH]c3ccccc32)c(=O)n1-c1ccccc1F)Nc1cccc(C(F)(F)F)c1	111	105
COc1ccc(C(=O)n2nc(-c3cccnc3)nc2NCc2ccccc2)cc1OC	111	112
Fc1cccc(-c2nc(-c3ccncc3)no2)c1	104	103
CCOC(=O)c1ccc2nc(C)cc(Nc3cccc(C(=O)O)c3)c2c1	103	104
O=C(Nc1ccc2nc(SCC(=O)N3CCCc4ccccc43)sc2c1)c1cccc(Cl)c1	99	106
CSc1ncc(C(=O)Nc2ccc(C(C)=O)cc2)c(-c2ccccc2)n1	113	117
O=c1oc2c(CN3CCOCC3)c(O)ccc2cc1-c1ccccc1	110	116
Cc1ccc(CCNC(=O)CN2N=C(c3ccc(C)cc3)CCC2=O)cc1	109	114
CCCc1ccc(C2Sc3ccccc3NC3=C2C(=O)c2ccccc23)cc1 (centres undefined)	108	116

Single records, as listed above. Values in the order: PV pol inh, PV pol inh intensity
`O=C(Nc1ccc2nc(SCC(=O)N3CCCc4ccccc43)sc2c1)c1cccc(Cl)c1` as listed: 99, 106
`CSc1ncc(C(=O)Nc2ccc(C(C)=O)cc2)c(-c2ccccc2)n1` as listed: 113, 117
`Cc1ccc(CCNC(=O)CN2N=C(c3ccc(C)cc3)CCC2=O)cc1` as listed: 109, 114
`O=c1oc2c(CN3CCOCC3)c(O)ccc2cc1-c1ccccc1` as listed: 110, 116
`Fc1cccc(-c2nc(-c3ccncc3)no2)c1` as listed: 104, 103

Not all compounds are listed, so the mix of outcomes need not match the whole.
